Source: PubChem BioAssay (National Center for Advancing Translational Sciences (NCATS))
VDR inh – blocks the human vitamin D receptor. VDR-SRC2-3 peptide fluorescence polarization, 2 h. P11473. Potency, µM, for the others: max response, negative = inhibition, actives largely listed as inhibitors. AID 504847. actives 0.93% (n = 400,000); active = well fitted inhibition curve with a large enough effect; inconclusive = small, poorly fitted or top-dose-only effect, or another doubt; inactive = no such curve, though single readings can be large or run the other way; note: series mostly up to about 120 µM
Target sequence (P11473 whole entry, looked up): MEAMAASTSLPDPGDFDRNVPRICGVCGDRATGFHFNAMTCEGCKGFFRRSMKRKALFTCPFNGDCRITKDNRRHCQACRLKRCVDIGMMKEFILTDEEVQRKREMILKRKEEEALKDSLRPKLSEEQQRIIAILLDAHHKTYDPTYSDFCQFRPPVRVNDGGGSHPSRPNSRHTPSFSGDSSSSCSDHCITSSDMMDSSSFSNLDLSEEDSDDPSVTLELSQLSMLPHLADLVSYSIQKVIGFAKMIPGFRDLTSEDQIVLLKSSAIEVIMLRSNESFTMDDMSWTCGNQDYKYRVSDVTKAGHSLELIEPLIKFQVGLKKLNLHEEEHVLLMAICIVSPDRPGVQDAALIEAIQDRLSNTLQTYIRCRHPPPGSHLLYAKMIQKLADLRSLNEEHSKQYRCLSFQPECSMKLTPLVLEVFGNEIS
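After 23 nl compound addition and a short centrifugation, plates sat for 2 hours at ambient temperature; polarization of fluorescence then indicated loss of VDR binding to peptide SRC2-3.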
* hit, by the source's call; ? = inconclusive; & = joins results of further samples; [ ] = another dose, or the depositor's remark. % is set by controls: 0 for no effect and ±100 for the full control effect; potency is the fitted concentration of half-maximal effect. Only part of the results is shown. The share of hits here may be higher or lower than overall.

Sample of the layout (2 entries):
#	Structure	VDR inh
1	CCN(CC(=O)NC1CCS(=O)(=O)C1)S(=O)(=O)c1ccc(Cl)cc1C(F)(F)F (stereo not drawn)	-5%
2	COc1ccc2[nH]c3c(c2c1)CCC/C3=N\N	-9%

Main list, previewed entries included:
#	Structure	VDR inh
1	CCN(CC(=O)NC1CCS(=O)(=O)C1)S(=O)(=O)c1ccc(Cl)cc1C(F)(F)F (stereo not drawn)	-5%
2	COc1ccc2[nH]c3c(c2c1)CCC/C3=N\N	-9%
3	CC(C)COC(=O)c1ccc(NC(=O)C2C3CCC(C3)C2C(=O)O)cc1 (stereo not drawn)	2%
4	COc1ccc(-c2nc(CS(=O)(=O)CC(=O)NCCCN3CCN(C)CC3)c(C)o2)cc1	-11%
5	COc1ccc(NC(=O)CS(=O)CC(=O)Nc2ccc(F)cc2F)cc1 (stereo not drawn)	8%
6	CON/C=C(\C=Nc1ccc(Cl)cc1)c1ncc(C(F)(F)F)cc1Cl	-9%
7	O=C(COC(=O)c1ccccc1)Nc1ccccc1Br	-1%
8	CCCN(C(=O)c1ccc2c(=O)n3c(nc2c1)CCCCC3)c1cccc(Cl)c1	-7%
9	COc1cc(OC)c(C(=O)O/N=C(\N)c2cccc(C)c2)cc1OC	-9%
10	Cn1c(-c2sc(=S)n(-c3ccccc3)c2N)nc2ccccc21	-2%
11	COC(=O)C1Cc2ccccc2CN1S(=O)(=O)c1ccc(F)cc1 (stereo not drawn)	5%
12	Cn1nc(NC(=O)C(C)(C)C)c2c(F)cccc21	7%
13	O=C(/C=C/c1ccccc1)NC(=S)Nc1ncccn1	-1%
14	Cc1ccc(Nc2ccc(C(=O)NCCc3ccccc3)cn2)cc1	-9%
15	CCCc1cc(C(=O)N2CCCC(Cc3ccccc3C)(C(=O)OCC)C2)no1 (stereo not drawn)	13%
16	Cn1c(CCN2CCCCCC2)nc2cc(NC(=O)Nc3ccccc3)ccc21	-1%
17	O=C(NNS(=O)(=O)c1ccccc1)c1ccc(S(=O)(=O)N2CCCCC2)cc1	5%
18	CCC(=O)N/C(N)=N/c1nc2ccccc2o1	10%
19	COc1cccc(C2CC(=O)C3=C(C2)Nc2ccccc2N(C(=O)CCC(=O)O)C3c2ccc(F)cc2)c1 (stereo not drawn)	-11%
20	Cc1ccc(NS(=O)(=O)c2cccc(C(=O)NCC(c3cccs3)N(C)C)c2)cc1 (stereo not drawn)	10%
21	Cc1ccc(Cn2ncn(-c3ccccc3)c2=O)cc1	-4%
22	CC(=O)c1cccc(CN2CCC(CO)(CCCc3ccccc3)CC2)c1	-10%
23	COc1cc(/C=C2/C(=O)NN(c3ccc(Cl)cc3)C2=O)cc(OC)c1O	?
24	CC(C)CCCN1C(N(C)C)=NC[C@@H]1Cc1ccccc1	-7%
25	CCCCNC(=O)C(CC)(ONc1ccccc1C(F)(F)F)c1ccccc1OC (stereo not drawn)	-4%
26	COC(=O)c1sccc1NC(=O)c1cc(-c2cc(C)ccc2C)nc2ccccc12	-8%
27	CCOC(=O)c1ccc(N2C(=O)C3CC=CCC3C2=O)cc1 (stereo not drawn)	-7%
28	CCc1cccc(NC(=O)Cn2c(-c3ccccc3)cc(C(C)=O)c2C)c1	-7%
29	CC1CCCC(C)N1C(=S)NCc1ccco1 (stereo not drawn)	-9%
30	Cc1ccc2nc(-c3ccc(Cl)s3)c(Nc3ccc4c(c3)OCCO4)n2c1	-3%
31	COc1ccc(CCNC(=O)C2CCC(=O)N2S(=O)(=O)c2ccc(C)cc2)cc1 (stereo not drawn)	-21%
32	COc1ccccc1C(=O)Nc1c(C(=O)N2CCN(C)CC2)oc2ccccc12	-9%
33	CC1Cc2cc(S(=O)(=O)N3CCN(c4cccc(Cl)c4)CC3)ccc2N1C(=O)C1CC1 (stereo not drawn)	-4%
34	CN(C(=O)CSc1nnc(-c2ccc3c(c2)OCO3)o1)C1CCS(=O)(=O)C1 (stereo not drawn)	-18%
35	CCC(C)C(NS(=O)(=O)c1ccc(C)cc1)C(=O)O (stereo not drawn)	0%
36	CC(C)(C)n1nc2c(c1NC(=O)c1ccc(Br)cc1)CS(=O)C2 (stereo not drawn)	5%
37	Cc1cc(C)c2c(-n3cccc3)c(NC(=O)OC(C)C)sc2n1	-11%
38	O=[N+]([O-])c1cccnc1NCc1cccs1	14%
39	CCOc1ccc(NC(=O)CSc2nnc(-c3ccco3)n2N)cc1	4%
40	CCOC(=O)c1cnc2cc(C(F)(F)F)ccc2c1Nc1cc(C)ccc1OC	-8%
41	Cc1ccccc1-c1ccc2ncnc(NCc3cccs3)c2c1	48%[activator]
42	CC1Cc2cc(S(=O)(=O)CCC(=O)N3CCN(c4ccccc4)CC3)ccc2N1C(=O)C1CC1 (stereo not drawn)	3%
43	COc1ccc(C(=O)NCC(c2cccs2)N2CCc3ccccc32)cc1OC (stereo not drawn)	10%
44	COc1ccc(C)cc1Nc1n[n+](-c2ccccc2)c(-c2ccc(SC)cc2)s1	-23%
45	COc1ccc(NC(=O)CSc2nnc(CN3CCOCC3)n2C)cc1Cl	1%

Reprinted at random: 4 entries already listed, in no set order.
#	Structure	VDR inh
20	Cc1ccc(NS(=O)(=O)c2cccc(C(=O)NCC(c3cccs3)N(C)C)c2)cc1 (stereo not drawn)	10%
1	CCN(CC(=O)NC1CCS(=O)(=O)C1)S(=O)(=O)c1ccc(Cl)cc1C(F)(F)F (stereo not drawn)	-5%
17	O=C(NNS(=O)(=O)c1ccccc1)c1ccc(S(=O)(=O)N2CCCCC2)cc1	5%
24	CC(C)CCCN1C(N(C)C)=NC[C@@H]1Cc1ccccc1	-7%

Results in sequence from the list:
Entries 32 to 37 in VDR inh read -9%, -4%, -18%, 0%, 5%, -11%

(listing goes on)
#	Structure	VDR inh
46	Cc1ccc(CNC(=O)c2ccccc2NS(=O)(=O)c2ccc(Cl)nc2)cc1	-11%
47	COc1cccc(OC)c1NC(=O)C1CCCN1C(=O)Nc1ccccc1F (stereo not drawn)	15%
48	CCOC(=O)c1ccc(NC(=O)Cn2c(C)nc3c(sc(=S)n3CC)c2=O)cc1	14%
49	COC(=O)/C(=C1/Oc2cc(C)oc(=O)c2S1)C(F)(F)F	-18%
50	O=C(CN(c1cccc(Br)c1)S(=O)(=O)c1ccccc1)N1CCc2ccccc2C1	-7%
51	CCn1ncc(Br)c1C(=O)N(C)C12CC3CC(CC(C3)C1)C2	22%
52	O=C(COc1ccc(Br)cc1)Nc1ccc(Cc2ccncc2)cc1	7%
53	CCc1c(C#N)c(SCCC(=O)Nc2ccc(OC)cc2)nc2c1C(=O)CC(C)(C)C2	7%
54	Nc1ncnc2c1ncn2[C@@H]1O[C@@H](CO)[C@H](O)[C@H]1O	15%
55	CSc1nc(N2CCOCC2)c2c(c1C#N)CCCCC2	0%
56	COc1cccc(NC(=O)CN(C)C(=O)Cc2ccc3c(c2)CCC3)c1	-7%
57	Cc1noc2ncnc(Sc3ccc(Br)cc3)c12	?
58	Cc1ccc(CNC(=O)C2CCCN2C(=O)Nc2ccc(C)cc2)cc1 (stereo not drawn)	-13%
59	CCOC(=O)c1cc(OC(=O)c2ccc(C)cc2)n(-c2ccccc2)n1	10%
60	NC(=O)CC(NC(=O)Cc1cccc2ccccc12)c1ccc(NCCN2CCCC2)c([N+](=O)[O-])c1 (stereo not drawn)	-14%
61	O=C(O)CCCn1ccc2cc(S(=O)(=O)N3CCCC3)ccc21	-10%
62	O=C(COC(=O)c1cc[n+]([O-])cc1)Nc1ccc([N+](=O)[O-])cc1C(F)(F)F	1%
63	CCC(C)(C)n1nnnc1C(c1ccc(C)cc1)N1CCN(C(=O)c2ccco2)CC1 (stereo not drawn)	-1%
64	O=[N+]([O-])c1cccc(C2=NCCC(c3ccccc3)O2)c1 (stereo not drawn)	-6%
65	CCN(Cc1ccccc1)C(=S)Nc1cc(C(=O)OC)ccc1C(=O)OC	-14%
66	COc1ccc(-c2ccc(SCC(=O)N3c4ccccc4CC3C)nn2)cc1OC (stereo not drawn)	-2%
67	FC(F)(F)c1cccc(N2CCN(Cc3ccoc3)CC2)c1	-9%
68	COc1ccc(C(=O)OCC(=O)N2CCc3ccccc32)cc1S(=O)(=O)N1CCOCC1	-14%
69	Cc1ccc(C)c(S(=O)(=O)N2CCN(C(=O)CN3C(=O)NC(C)(C)C3=O)CC2)c1	0%
70	O=C(c1ccco1)N1CCN(CCOc2ccccc2)CC1	-11%
71	COC(=O)c1c(C(=O)c2ccc(Br)cc2)n(C)c2ccccc12	-11%
72	COc1ccc(NC(=O)CCCNS(=O)(=O)c2cccs2)cc1	0%
73	Cc1ccc(C2=CC(c3ccccc3)n3ncnc3N2)c(C)c1 (stereo not drawn)	-17%
74	NC(=O)C[n+]1cccc(/C=N/O)c1	-23%
75	O=C(CSc1nnc(-c2cccnc2)n1-c1ccccc1)Nc1ccc2c(c1)OCO2	12%
76	CC(=O)N1CCN(C(=O)CSc2ncnc3sc(C)c(C)c23)CC1	-8%
77	O=C(NCCN1CCOCC1)c1cc([N+](=O)[O-])ccc1Cl	0%
78	O=C1C=C(c2ccc(F)c(Cl)c2)C[C@@H](c2ccc(F)cc2)C1	-1%
79	O=C(CNC(=O)c1ccc(Br)o1)NCC1COc2ccccc2O1 (stereo not drawn)	0%
80	COc1cc(/C=C/C(=O)N2CCN(CC(=O)N3CCCC3)CC2)cc(OC)c1OC	-3%
81	CCOc1ccccc1CNC(=O)CCn1ccc2cc(S(=O)(=O)N3CCCCC3)ccc21	-16%&9%
82	Cc1ccc(C(=O)OCC(=O)NCc2ccccc2)cc1S(=O)(=O)N1CCCCC1	-7%
83	COC(CNC(=O)C(=O)Nc1cc2c3c(c1)CCN3C(=O)CC2)OC	-4%
84	O=C(CS(=O)(=O)Cc1ccccc1)NCC1CCCO1 (stereo not drawn)	-15%
85	CNC(=O)NC(=O)C(C)OC(=O)c1c2c(nc3ccccc13)/C(=C/c1cccs1)CC2 (stereo not drawn)	-6%
86	O=C(OCc1ccccc1)C1=NNC2C(=O)N(Cc3ccccc3)C(=O)C12 (stereo not drawn)	-7%
87	O=C(O)COc1ccc(/C=N/NC(=O)/C(=C/C=C/c2ccccc2)NC(=O)c2ccccc2)cc1	?
88	O=C(NCc1ccccc1F)C1CC(=O)N(c2ccc3c(c2)OCCO3)C1 (stereo not drawn)	-6%
89	CC[C@H](C)[C@H](NC(=O)[C@H](C)NC(=O)CNC(=O)[C@H](CCCCN)NC(=O)[C@H](CC(N)=O)NC(=O)[C@H](CO)NC(=O)CN)C(=O)N[C@H](C(=O)NCC(=O)N[C@@H](CC(C)C)C(=O)N[C@@H](CCSC)C(=O)O)[C@@H](C)CC	-1%
90	CCOC(=O)CCNC(=O)N1CCCC(C(=O)c2ccc3c(c2)OCO3)C1 (stereo not drawn)	4%
91	CC(C)Cn1c(=O)oc2ccccc21	-19%
92	Cc1cc(NC(=O)CSc2nc3c(cc2C#N)CCCC3)no1	3%
93	CCOc1ccccc1N(C)C(=O)c1cc2c(s1)-c1ccccc1OC2	-9%
94	CC1CCN(c2ccc(-c3cccc(NS(=O)(=O)c4ccc(F)cc4F)c3)nn2)CC1	18%
95	O=C(Nc1ccccc1-c1ccccc1)c1ccc(=O)[nH]n1	-11%
96	COCc1nc2ccccc2n1Cc1cccc(C)c1	10%&-15%
97	CN(Cc1ccccc1)C(=O)c1ccc2c(c1)NC(=O)C(N1CCOCC1)S2 (stereo not drawn)	8%
98	Cc1nc(Cl)sc1C(=O)Nc1ccccc1Cl	1%
99	Cc1ccc(C(c2nnnn2C2CCCCC2)N(C)C2CCCCC2)cc1 (stereo not drawn)	3%
100	Cc1cccn2c(=O)c(/C=C(\C#N)C(=O)NCc3ccco3)c(N3CCOCC3)nc12	2%
101	O=C(N/N=C/c1c[nH]c2ccccc12)C1CC1(c1ccccc1)c1ccccc1 (stereo not drawn)	9%
102	O=C(O)CCCCCNS(=O)(=O)c1cccc2nsnc12	-6%
103	COc1ccc(CNn2cnnc2)c(O)c1	-3%
104	C=CCn1nc(-c2ccccc2)cc1C(=O)OCC	-11%
105	O=C(Nc1ccc(S(=O)(=O)N2CCc3ccccc32)cc1)c1ccco1	7%

Single values from above:
Cc1cc(NC(=O)CSc2nc3c(cc2C#N)CCCC3)no1 – VDR inh: 3%
COc1ccc(CNn2cnnc2)c(O)c1 – VDR inh: -3%

Next part:
#	Structure	VDR inh
106	O=C(Nc1ccccc1Cl)c1cc2ccccc2o/c1=N\O	-4%
107	Cc1ccc(Cn2c([N+](=O)[O-])cnc2C)cc1	?
108	O=[N+]([O-])c1ccc(O)c2cccnc12	6%
109	O=C1N(Cc2cccc(Cl)c2)C[C@@H]2C[C@@H](c3cccn3-c3nccs3)N3CCC[C@@]123	10%
110	CCN(CC(=O)Nc1ccccc1C(F)(F)F)C(=O)c1oc2c(Cl)cccc2c1C	8%
111	COc1ccccc1C1CCN(Cc2cccc3ccccc23)CC1	-22%
112	C#CCOCCOCCOCCNc1nc(N2CCOCC2)nc(N2CCN(C(=O)Cn3cc(CCCN=C(N)N)nn3)CC2)n1	?
113	CC1CCCN(CC(O)CN2CCN(CC(O)CN3CCCC(C)C3)C(C)C2)C1 (stereo not drawn)	16%
114	O=C(COC(=O)CCc1c[nH]c(=O)[nH]1)Nc1ccccc1	5%
115	COc1ccc(N/C=C2/CCCCC2=O)cc1	-2%
116	CCn1c(CS(=O)Cc2ccc(Cl)cc2Cl)nnc1SCc1c(Cl)cccc1Cl (stereo not drawn)	-21%
117	CCN(CC(=O)Nc1ccc(NC(C)=O)cc1)C(=O)c1cccnc1Sc1ccc(C)c(C)c1	7%
118	CCOC(=O)C1CCCN(C(=O)c2cn(C)c3ccc(S(=O)(=O)N(C)C)cc3c2=O)C1 (stereo not drawn)	-16%
119	O=C(CSC1=NC(=O)C(c2ccccc2)C(=O)N1)Nc1ccccc1Cl (stereo not drawn)	-2%
120	CCCCC[C@@H]1C=C(C(=O)O)[C@H](c2ccc(CC)cc2)N1S(=O)(=O)c1ccc(C)cc1	-6%
